# Bioassay records: PubChem BioAssay, Broad Institute
# Vaccinia inh = blocks a specific stage of Vaccinia orthopoxvirus infection, primary screen, cell-based, single point | Vaccinia-infected cells, mCherry/Venus stage reporter fluorescence; active compounds read low; some inactives read as strong as hits | activity change (mCherry), % (no concentration beside the values) | 89,000 tested, 0.01% active;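 active means mCherry past -33% and 40 or more points under the early reporter, replicates agreeing; inconclusive means past -33% without that gap or agreement; tested in A549 cells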;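 further: scaled between vehicle wells and reference inhibitor wells; 23 nL library stock went into each well; one replicate is shown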
# Vaccinia inh Venus = second read-out of Vaccinia inh, no call of its own (marks repeat the call); activity change (Venus), %; measured here: Venus reporter, other viral stage;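 negative = less Venus signal; first of two replicates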
# The depositor's hits bear a star; u = inconclusive; x = not tested or not shown. The list is partial; rates above refer to the full screens.
# Below each compound – Vaccinia inh	Vaccinia inh Venus
COc1cccc(C(=O)Nc2ccc3c(c2)OC[C@@H](C)N(CC2CC2)C[C@@H](C)[C@H](OC)CN(C)C3=O)c1
    -8.3	-10.4
O=C(C[C@@H]1C=C[C@@H](NC(=O)Nc2ccc3c(c2)OCO3)[C@@H](CO)O1)NCc1ccc(Cl)cc1
    -4.3	1.7
C[C@H]1CN([C@@H](C)CO)C(=O)c2cc(-c3ccccc3)cnc2O[C@@H]1CN(C)C(=O)c1ccccc1F
    -15.1	-12.5
Cc1ccc(S(=O)(=O)N(C)C[C@H]2Oc3ccc(NC(=O)CCCN(C)C)cc3C(=O)N([C@H](C)CO)C[C@H]2C)cc1
    -1.3	3.1
CCCC#Cc1ccc2c(c1)O[C@@H](CN(C)C)[C@H](C)CN([C@@H](C)CO)S2(=O)=O
    -16.6	-7.8
Cc1ccc(-c2ccc3c(c2)O[C@H](CN(C)Cc2cccc(C(=O)O)c2)[C@H](C)CN([C@@H](C)CO)S3(=O)=O)cc1
    -11.9	-16.1
CC(C)NC(=O)Nc1ccc2c(c1)CC(=O)N([C@@H](C)CO)C[C@@H](C)[C@H](CN(C)Cc1ccc(Cl)c(Cl)c1)O2
    u	x
C[C@@H]1CN([C@@H](C)CO)C(=O)c2cc(-c3cccc(C(=O)N(C)C)c3)cnc2O[C@H]1CN(C)C(=O)Cc1ccccn1
    13.4	6.1
C[C@H]1CN([C@@H](C)CO)S(=O)(=O)c2ccc(-c3ccccc3)cc2O[C@@H]1CN(C)C(=O)CC1CC1
    -13.1	-9.3
CN1CCN(C(=O)C[C@H]2C[C@@H]3c4cc(NC(=O)CC5CC5)ccc4O[C@@H]3[C@H](CO)O2)CC1
    13.4	19.5
CO[C@@H]1CN(C)C(=O)c2cc(NC(C)=O)ccc2OC[C@@H](C)N(C(=O)c2ccccc2F)C[C@@H]1C
    -0.1	6.1
C[C@@H](NC(=O)C[C@H]1CC[C@H]2[C@@H](COC[C@@H](O)CN2C(=O)Nc2cc(Cl)cc(Cl)c2)O1)c1ccccc1
    u	x
COc1cccc(-c2cn(CC[C@@H]3CC[C@H](NS(=O)(=O)Cc4ccccc4)[C@H](CO)O3)nn2)c1
    -17.1	-0.3
C[C@@H]1CN([C@H](C)CO)C(=O)c2cc(NS(=O)(=O)c3ccc(F)cc3)ccc2O[C@H]1CN(C)Cc1ccncc1
    8.7	12.8
O=C(C[C@H]1C[C@H]2c3cc(NC(=O)CC4CC4)ccc3O[C@H]2[C@H](CO)O1)NCc1ccccn1
    -8.6	1.1
C/C=C/c1ccc([C@@H]2[C@@H](CO)N3C(=O)CN(Cc4ccccc4)C[C@H]23)cc1
    18.3	7.2
CCCN1[C@@H]2c3ccc(-c4cccc(F)c4)c(=O)n3C[C@@H]2[C@@H](CO)[C@@H]1C(=O)N[C@H](C)c1ccccc1
    u	x
C[C@H](CO)N1C[C@H](C)[C@@H](CN(C)S(=O)(=O)c2ccc(F)cc2)Oc2ccc(NS(C)(=O)=O)cc2CC1=O
    5.9	12.8
C[C@H](CO)N1C[C@H](C)[C@@H](CN(C)Cc2ccccc2)Oc2ncc(-c3cncnc3)cc2C1=O
    0.0	2.7
O=C(C[C@H]1CC[C@H](NC(=O)C2CC2)[C@H](CO)O1)NCc1ccccc1Cl
    -2.5	2.1
COc1ccc(NC(=O)Nc2ccc3c(c2)C(=O)N([C@H](C)CO)C[C@H](C)[C@H](CN(C)Cc2ccc(C(=O)O)cc2)O3)cc1
    -3.1	3.1
Cc1ccc(S(=O)(=O)N(C)C[C@@H]2Oc3c(NS(=O)(=O)c4cn(C)cn4)cccc3C(=O)N([C@H](C)CO)C[C@@H]2C)cc1
    18.1	18.9
CCCC(=O)N1CC2(C1)CN(S(=O)(=O)c1ccc(C)cc1)[C@@H](CO)c1[nH]c3cc(OC)ccc3c12
    -10.6	-9.8
C[C@@H]1CN([C@@H](C)CO)C(=O)Cc2cc(NC(=O)Nc3ccccc3)ccc2O[C@@H]1CN(C)C(=O)Nc1ccc2c(c1)OCO2
    -0.1	2.9
CC(C)NC(=O)N(C)C[C@H]1Oc2ccc(NC(=O)CCN3CCOCC3)cc2C(=O)N([C@H](C)CO)C[C@@H]1C
    -0.8	6.8
COc1ccc(CN(C)C[C@H]2OCCCC[C@H](C)Oc3ccc(NS(=O)(=O)c4cn(C)cn4)cc3C(=O)N([C@H](C)CO)C[C@H]2C)cc1
    12.3	2.7
O=C(C[C@@H]1C[C@H]2c3cc(NC(=O)CC4CC4)ccc3O[C@H]2[C@@H](CO)O1)NCc1ccc(Cl)cc1
    -7.1	-3.5
C[C@@H]1CN([C@@H](C)CO)C(=O)Cc2cc(NC(=O)C3CC3)ccc2O[C@@H]1CN(C)C(=O)Nc1ccc(C(F)(F)F)cc1
    -7.5	-2.8
O=C(C[C@@H]1CC[C@H](NS(=O)(=O)c2ccc(F)cc2)[C@H](CO)O1)N1CCC(Cc2ccccc2)CC1
    -21.7	-12.7
O=C(CCN1CCCCC1)N[C@H]1C=C[C@H](CC(=O)N2CCC(Cc3ccccc3)CC2)O[C@@H]1CO
    -14.8	1.7
C[C@H](CO)N1C[C@H](C)[C@H](CN(C)CC2CCCCC2)OCCCC[C@H](C)Oc2ccc(NS(=O)(=O)c3cccs3)cc2C1=O
    -27.5	-16.5
C[C@@H]1CN([C@@H](C)CO)C(=O)c2ccccc2-c2ccccc2CO[C@@H]1CN(C)C(=O)Nc1ccccc1
    13.0	6.8
COCC(=O)N(C)C[C@H]1Oc2ncc(-c3ccccc3OC)cc2C(=O)N([C@H](C)CO)C[C@@H]1C
    -2.7	3.7
C[C@@H]1CN([C@H](C)CO)C(=O)Cc2cc(NS(=O)(=O)c3ccc(Cl)cc3)ccc2O[C@H]1CN(C)S(=O)(=O)c1ccc(Cl)cc1
    -1.8	3.6
C[C@H](CO)N1C[C@H](C)[C@@H](CN(C)S(=O)(=O)c2ccccc2)Oc2ccc(NC(=O)C3CCCCC3)cc2C1=O
    -8.0	-4.0
CO[C@@H]1CN(C)C(=O)c2cc(NC(=O)c3cccc(F)c3)ccc2OC[C@@H](C)NC[C@H]1C
    -12.1	-7.9
C[C@H]1CN([C@@H](C)CO)C(=O)c2c(c3ccccc3n2C)-c2ccccc2CO[C@H]1CN(C)C(=O)Nc1ccnc(N2CCOCC2)c1
    u	x
C[C@@H]1CCCCO[C@@H](CN(C)S(=O)(=O)c2cccs2)[C@@H](C)CN([C@H](C)CO)C(=O)c2cc(NS(=O)(=O)c3ccc(F)cc3)ccc2O1
    6.6	1.1
CCCN1C[C@@H](C)[C@@H](OC)CN(C)C(=O)c2ccc(NC(=O)c3cccc(OC)c3)cc2OC[C@H]1C
    5.6	13.3
CO[C@H]1CN(C)C(=O)c2cc(NC(=O)C3CCOCC3)ccc2OC[C@H](C)N(C(C)=O)C[C@@H]1C
    0.6	2.2
CCN1[C@@H]2Cn3c(ccc(-c4ccc(F)cc4)c3=O)[C@H]1[C@@H](C(=O)Nc1nccs1)[C@@H]2CO
    3.0	-2.3
O=C(Cc1cccnc1)N1CCCCN2[C@@H](CO)[C@@H](c3ccc(C#CC4(O)CCCC4)cc3)[C@@H]2C1
    33.9	16.8
CCCC(=O)Nc1ccc2c(c1)C(=O)N(C)[C@H]1CC[C@H](CC(=O)NC3CCCC3)O[C@H]1CO2
    2.5	1.1
CN1CCN(C(=O)C2=C[C@@H](c3ccc4c(c3)OCO4)C[C@@H](OCCCCO)O2)CC1
    10.7	10.4
O=C(C[C@H]1CC[C@H](NC(=O)C2CC2)[C@H](CO)O1)NCCCN1CCOCC1
    7.5	6.2
CO[C@@H]1CN(C)C(=O)c2cc(NS(C)(=O)=O)ccc2OC[C@@H](C)N(C(=O)C2CCCC2)C[C@H]1C
    22.2	22.4
C[C@@H]1CCCCO[C@@H](CN(C)C(=O)Nc2ccccc2)[C@H](C)CN([C@@H](C)CO)C(=O)c2cc(NC(=O)Cc3ccccc3)ccc2O1
    -18.2	-19.9
C[C@@H](O)C#Cc1ccc([C@H]2[C@H](CO)N3CCCCN(C(=O)c4ccc5c(c4)OCO5)C[C@@H]23)cc1
    17.6	11.2
O=C(c1ccccc1F)N1C[C@H]2O[C@H](CNS(=O)(=O)c3ccccc3)CC[C@H]21
    15.8	10.2
C[C@H](CO)N1C[C@H](C)[C@@H](CN(C)CC2CCOCC2)Oc2cc(C3=CCCC3)ccc2S1(=O)=O
    -29.7	-20.1
COCC#Cc1ccc2c(c1)O[C@H](CN(C)S(=O)(=O)c1ccc(OC)cc1)[C@H](C)CN([C@@H](C)CO)S2(=O)=O
    -29.2	-25.9
COc1ccc(NC(=O)Nc2ccc3c(c2)C(=O)N([C@@H](C)CO)C[C@H](C)[C@@H](CN(C)Cc2ccc(C(=O)O)cc2)O3)cc1
    -3.7	11.3
CCCC#Cc1ccc([C@@H]2[C@H](C#N)N(C(=O)C3CCC3)[C@H]2CO)cc1
    -28.9	-15.1
C[C@@H]1CN([C@@H](C)CO)C(=O)c2cc(C3=CCCC3)cnc2O[C@H]1CN(C)C(=O)CN(C)C
    22.7	7.0
O=C(C[C@H]1C=C[C@@H](NC(=O)Nc2ccc3c(c2)OCO3)[C@H](CO)O1)NCc1ccc2c(c1)OCO2
    4.8	2.9
CC(=O)N(C)C[C@H]1Oc2cc(-c3cccc(C#N)c3)ccc2S(=O)(=O)N([C@H](C)CO)C[C@@H]1C
    27.3	15.2
COc1ccc(S(=O)(=O)N(C)C[C@@H]2OCc3ccccc3-c3ccccc3C(=O)N([C@H](C)CO)C[C@H]2C)cc1
    7.8	11.8
COc1ccc(S(=O)(=O)N2CC[C@@H]3[C@H]2c2cc(C#Cc4ccccc4OC)ccc2N[C@@H]3CO)cc1
    1.9	-2.2
CC(C)NC(=O)N(C)C[C@@H]1Oc2ccc(NS(=O)(=O)c3ccc(Cl)cc3)cc2C(=O)N([C@H](C)CO)C[C@@H]1C
    -1.3	6.7
CCCNC(=O)N[C@H]1CC[C@@H](CC(=O)NCCc2ccccc2)O[C@H]1CO
    10.5	12.3

# In the list so far, these contain a cyano group.
# Below each compound – Vaccinia inh	Vaccinia inh Venus
CCCC#Cc1ccc([C@@H]2[C@H](C#N)N(C(=O)C3CCC3)[C@H]2CO)cc1
    -28.9	-15.1
CC(=O)N(C)C[C@H]1Oc2cc(-c3cccc(C#N)c3)ccc2S(=O)(=O)N([C@H](C)CO)C[C@@H]1C
    27.3	15.2

# Compound profiles, from the list above:
# C[C@@H]1CN([C@H](C)CO)C(=O)c2cc(NS(=O)(=O)c3ccc(F)cc3)ccc2O[C@H]1CN(C)Cc1ccncc1 is listed as Vaccinia inh = 8.7; Vaccinia inh Venus = 12.8
# CC(=O)N(C)C[C@H]1Oc2cc(-c3cccc(C#N)c3)ccc2S(=O)(=O)N([C@H](C)CO)C[C@@H]1C is listed as Vaccinia inh = 27.3; Vaccinia inh Venus = 15.2
# COc1ccc(S(=O)(=O)N2CC[C@@H]3[C@H]2c2cc(C#Cc4ccccc4OC)ccc2N[C@@H]3CO)cc1 is listed as Vaccinia inh = 1.9; Vaccinia inh Venus = -2.2

# Remaining list, next part:
SMILES | Vaccinia inh | Vaccinia inh Venus
O=C(Nc1ccc(F)cc1)N[C@@H]1CC[C@@H](CC(=O)N2CCCCC2)O[C@@H]1CO | -9.3 | -9.5
O=C(C1CC1)N1CCCCN2[C@H](CO)[C@@H](c3ccc(C#CC4CCCC4)cc3)[C@H]2C1 | -32.6 | -31.3
O=C(N[C@H]1C[C@@H]2O[C@H](CO)CC[C@@H]2O[C@@H]1CCc1ccc(-c2ccccc2)cc1)c1cnccn1 | 3.6 | -6.1
C[C@H](CO)N1C[C@H](C)[C@H](CN(C)C(=O)c2ccccc2F)Oc2ncc(-c3cccnc3)cc2C1=O | 28.7 | 9.7
CC(C)NC(=O)N(C)C[C@H]1OCCCC[C@H](C)Oc2ccc(NS(C)(=O)=O)cc2C(=O)N([C@@H](C)CO)C[C@@H]1C | 19.6 | 8.9
CC(=O)N(C)C[C@@H]1Oc2cc(C#CC(C)C)ccc2S(=O)(=O)N([C@@H](C)CO)C[C@@H]1C | 11.3 | 4.0
CCCC#Cc1ccc([C@@H]2[C@@H](C#N)N(C(=O)C3CCOCC3)[C@H]2CO)cc1 | -6.0 | -13.5
CN1c2ccc(-c3ccccc3)cc2[C@@H]2[C@@H](CCN2S(=O)(=O)c2ccccc2F)[C@H]1CO | -6.5 | -14.9
O=C(CN1CCOCC1)N1CCCCN2[C@H](CO)[C@H](c3ccc(C#Cc4ccccc4F)cc3)[C@@H]2C1 | -7.7 | -30.9
O=C(C1CC1)N1CC2(C1)[C@H](c1ccccc1)[C@H](CO)N2Cc1ccccc1F | -9.1 | -4.0
C[C@H]1CN([C@@H](C)CO)C(=O)Cc2cc(NC(=O)c3ccncc3)ccc2O[C@H]1CN(C)C(=O)NC1CCCCC1 | 2.4 | -4.8
C[C@H](CO)N1C[C@H](C)[C@H](CN(C)Cc2ccccn2)Oc2cc(-c3ccccc3)ccc2S1(=O)=O | 16.6 | 4.7
CS(=O)(=O)N1[C@H](C(=O)O)[C@@H](CO)[C@@H]2Cn3c(ccc(-c4ccc(F)cc4)c3=O)[C@@H]21 | 9.2 | 2.8
COc1cccc(-c2ccc([C@@H]3[C@H]4CN(C(=O)NC(C)C)CCCCN4[C@H]3CO)cc2)c1 | -19.4 | -13.6
Cc1noc(C)c1NC(=O)N[C@H]1CC[C@@H](CC(=O)N2CCN(C)CC2)O[C@@H]1CO | 12.3 | 10.9
CCC(=O)Nc1ccc2c(c1)C(=O)N(C)[C@@H]1CC[C@@H](CC(=O)NCCc3ccccc3)O[C@@H]1CO2 | -4.1 | -2.3
COCCNC(=O)C[C@@H]1CC[C@@H]2[C@@H](COc3ccc(NC(=O)COC)cc3C(=O)N2C)O1 | 1.8 | 7.8
